Source: PubChem BioAssay (several laboratories)
MT1-MMP promoter = inhibitors of MT1-MMP promoter transcription, cell-based, luciferase reporter, luminescence (AID 618) | hit rate 0.62% among 87,000 | calls from a first round at 10 µM; hits with a dose series show EC50 in µM | MT1-MMP promoter luciferase reporter cells, luminescence;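 active means over half of the reporter light lost at 10 µM or EC50 under 50 µM; inactive means the rest and hits that failed the dose series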;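 further: actives suppress MT1-MMP promoter-driven transcription so potencies describe inhibitors; HT1080 fibrosarcoma cells; overnight exposure; toxic or luciferase-blocking compounds were not removed from the actives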
WNV protease inh = blocks West Nile virus NS2B-NS3 protease activity; WNV NS2B-NS3 protease, fluorogenic substrate Ex360/Em465; active compounds read low; z-score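 (tested at a level between 10 and 100 µM)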; P06935; hit rate 0.18% among 65,000;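 active means z-score at -3 or under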;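 further: score is relative to mean and spread of the compound wells of a plate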
Target sequence (P06935 1371-1501 limits assumed): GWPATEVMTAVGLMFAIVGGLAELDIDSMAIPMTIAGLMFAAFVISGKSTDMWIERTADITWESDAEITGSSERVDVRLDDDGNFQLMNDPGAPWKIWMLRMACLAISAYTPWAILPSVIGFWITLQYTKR
Target sequence (P06935 1502-1679 limits assumed): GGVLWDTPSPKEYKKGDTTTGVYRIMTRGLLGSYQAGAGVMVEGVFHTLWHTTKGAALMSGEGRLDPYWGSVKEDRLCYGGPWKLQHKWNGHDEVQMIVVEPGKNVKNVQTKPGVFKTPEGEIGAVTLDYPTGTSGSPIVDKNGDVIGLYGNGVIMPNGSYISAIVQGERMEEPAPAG
Hsc70 ATP site = small molecules displacing fluorescent ligand from Hsc70 – biochemical, fluorescence polarization, primary screen (AID 568) | displacement, % at 20 µM; hits with a dose series show IC50 in µM | 83,000 tested, under 10 active | Hsc70 fluorescence polarization, probe displacement; higher % means a stronger effect; strong numbers were not always called active;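 active means displacement above 50% without optical interference and an IC50 on retest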;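 further: ATPase domain with a fluorescein-tagged ATP probe; 0% = vehicle and 100% = excess ADP; read after one hour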
* = called active by the depositor; i = inactive; nt = not tested or not shown; & = joins results of further samples.

SMILES	MT1-MMP promoter	WNV protease inh	Hsc70 ATP site
Cc1cnn(C2CCN(C)CC2)c1N	i	0.33	1.4%
CCOC(=O)c1c(C)n(Cc2ccc3c(c2)OCO3)c2ccc(O)cc12	i	nt	-0.4%
CON(C)C(=O)Nc1ccc(Cl)cc1	i	-2.53	5.2%
O=C(COc1ccc(Br)cc1)N1CCN(Cc2c[nH]c3ccccc23)CC1	i	nt	1.6%
CN1CCN(c2nccc3c2ncn3C)CC1	i	-0.78	-8.6%
CC(=NCc1ccc2c(c1)OCO2)c1c(O)n(C)c(=O)n(C)c1=O	i	0.05	2.2%
CC(=O)OC1N=C(c2ccccc2)c2cc(C)ccc2NC1=O (stereo not drawn)	i	nt	-3.3%
CCOP(=O)(C(NC(=O)c1ccccc1Cl)=C(Cl)Cl)c1ccccc1 (stereo not drawn)	i	nt	3.5%
O=C(CN1CCCC1=O)N1CCOCC1	i	0.39	6.4%
CC(C(N)=O)N1CC(c2ccccc2)CC1=O (stereo not drawn)	i	-1.31	5.9%
O=c1c2ccccc2nc(CSc2ncnc3nc[nH]c23)n1-c1ccccc1	i	-0.94	-2.7%
COC(=O)c1c(C)[nH]c(C(=O)C(Cc2ccccc2)N(C)C)c1C (stereo not drawn)	i	0.75	0.5%
CNCCCc1ccccc1	i	nt	3.2%
Cc1cccc(NC2=NCCCS2)c1C	i	0.55	-7.7%
O=C(c1cc2ccccn2n1)N1CCC2(CC1)OCCO2	i	0.6	-4.4%
Nc1c(C(=O)OC2CCCCC2)c2nc3ccccc3nc2n1CC1CCCO1 (stereo not drawn)	i	0.95	-6.8%
O=C(C1CC(c2ccc(Cl)c(Cl)c2)=NO1)N1CCC2(CC1)OCCO2 (stereo not drawn)	i	0.42	2.7%
O=C(c1cccn2c(=O)c3cc(Cl)ccc3nc12)N1CCC2(CC1)OCCO2	i	nt	0.9%
CCC(=O)OC1(c2cccc(C)c2)CC(C)N(C)CC1C (stereo not drawn)	i	0.57	1.6%
O=C(Cc1ccccc1)OC(COCc1ccccc1)CN1CCOCC1 (stereo not drawn)	i	1	-0.2%
Cc1ccc(-n2c(O)c(C=NC3CCCCC3N)c(=O)[nH]c2=O)cc1C (stereo not drawn)	i	1.44	-6.2%
O=C(CN1CC(c2ccccc2)CC1=O)Nc1cccc(F)c1 (stereo not drawn)	i	-0.12	2.6%
O=C(NCc1ccc(C(=O)N2CCC3(CC2)OCCO3)cc1)c1ccc2c(c1)OCO2	i	0.11	-1.2%
CCCNC(=O)N1C2CCC1CC(O)(c1cccnc1)C2 (stereo not drawn)	i	0.12	-1.4%
COc1ccccc1NC1=NCCS1	i	nt	-0.7%

Later entries
SMILES	MT1-MMP promoter	WNV protease inh	Hsc70 ATP site
O=C(CN1CCOCC1)c1ccc2cc[nH]c2c1	i	0.32	4.5%
Cc1cc(NC(=O)CCC(=O)N2CCC3(CC2)OCCO3)no1	i	0.78	2.0%
CCSc1nnc([C@@H](N)Cc2c[nH]c3ccccc23)o1	i	0.56	-4.2%
CN1CCc2nc(SCC(=O)OC(C)(C)C)c(C#N)cc2C1	i	-0.64	1.1%
O/N=C1\CCC2CN(C3CCCCC3)CC2C1 (stereo not drawn)	i	-0.74	5.2%
CC(=O)Nc1ccc(OC(=O)N2CCCCC2)cc1	i	-0.52	-2.8%
CN(C)C1=C(C#N)C(c2ccccc2)=NP(N(C)C)(N(C)C)=N1	i	1.5	3.2%
O=C(c1cc(-c2ccncc2)nc2ccccc12)N1CCC2(CC1)OCCO2	i	-0.16	-2.2%
O=C(c1cc(-c2cccnc2)nc2ccccc12)N1CCC2(CC1)OCCO2	i	0.74	0.0%
CCOC(=O)C(O)(c1ccc(N)c(OC)c1)C(F)(F)F (stereo not drawn)	i	-1.09	3.8%
COc1ccc(-n2c(O)c(C(C)=NCc3ccco3)c(=O)[nH]c2=O)cc1	i	-0.15	-0.1%
CC(C)(C)P(=O)(c1ccncc1)N1CCCC1 (stereo not drawn)	i	0.7	-1.1%
O=C(CN1CC(c2ccccc2)CC1=O)NCc1ccc(F)cc1 (stereo not drawn)	i	0.63	-4.7%
Cc1cc(Br)ccc1N1C(=O)CC(=O)NC1=O	i	0.12	-2.3%
CCC(CC)C1C(C#N)=C(N)Oc2c1c(=O)oc1ccccc21 (stereo not drawn)	i	nt	0.7%
O=P(CN1CCN(c2ccccc2)CC1)(N1CCCCC1)N1CCCCC1	i	-0.58	6.4%
Cc1cc(OC(=O)CCCNC(=O)OC(C)(C)C)c2c3c(c(=O)oc2c1)CCC3	i	nt	5.4%
Cc1sc2ncn(CC(=O)NCC(=O)N3CCC4(CC3)OCCO4)c(=O)c2c1C	i	0.00879	-10.5%
O/N=C1/C(=C\c2ccccc2)N2CCC1CC2	i	-0.13	-3.9%
COc1ccc(CCNC(C)CCc2ccc(OC)cc2)cc1 (stereo not drawn)	i	nt	2.0%
CCOC(=O)[C@@]1(C#N)[C@@H]2C=CC(C(N)=O)=CN2[C@@H](C(N)=O)[C@@H]1c1cccc(Cl)c1	i	-0.53	4.1%
COc1ccc(S(=O)(=O)Cc2ccc(C(=O)N3CCC4(CC3)OCCO4)o2)cc1	i	0.94	0.8%
COC(=O)CC1(CC(=O)OC)C(=O)NC(=O)NC1=O	i	0.0076	1.9%
Cc1n[nH]c(C)c1CCN	i	1.34	0.6%
Fc1ccc(NC2=NCCS2)cc1Cl	i	-0.84	2.9%

(list continues)
SMILES	MT1-MMP promoter	WNV protease inh	Hsc70 ATP site
O=c1[nH]c(=O)n(Cc2ccccc2)c(O)c1C=NCCN1CCOCC1	i	0.31	-3.5%
CNCCc1c(C)n[nH]c1C	i	0.62	2.9%
CC(C)CCn1c(N)c(C(=O)OCC2CCCO2)c2nc3ccccc3nc21 (stereo not drawn)	i	0.28	-5.6%
CSCCC(N=Cc1c(O)n(-c2ccc(F)cc2)c(=O)[nH]c1=O)C(=O)OC(C)(C)C (stereo not drawn)	i	nt	-4.1%
CCOC(=O)C(O)(c1cn(C)c2ccccc12)C(F)(F)F (stereo not drawn)	i	-0.58	8.8%
Cn1c(O)c(C=NCCN2CCN(C(=O)c3ccccc3)CC2)c(=O)n(C)c1=O	i	-0.41	2.6%
O=P1(Nc2cccnc2)COc2ccccc2OC1	i	0.31	-9.9%
CNP(=S)(NC)OCCOc1ccc(OC)cc1	i	-1.35	1.8%
COc1ccc(Cl)cc1NC1=NCC(C)S1 (stereo not drawn)	i	0.95	-1.6%
CCOc1ccc2[nH]c(=O)c(CN(CCO)C3(c4nnnn4C4CCCCC4)CCCCC3)cc2c1	i	0.47	-0.6%
CCCSc1nc(O)c(CC)c(=O)n1C(C)CC (stereo not drawn)	i	-1.23	-0.4%
CN1CCN(c2ncnc3ccc(Br)cc23)CC1	i	1.62	4.8%
CN1C(=O)C(Cc2cccc3ccccc23)C(=O)N(C)C1=O	i	-0.92	7.5%
Cc1c(N=Cc2c(O)n(CCc3ccc(F)cc3)c(=O)[nH]c2=O)c(=O)n(-c2ccccc2)n1C	i	0.44	-6.9%
CCOP(=O)(OCC)C(C)(C)NC(=O)C(Cl)(Cl)Cl	i	nt	5.5%
CC1(C)CC(n2[nH]c(=O)c3c2NC(=O)CSC3c2ccc(F)cc2)CCO1 (stereo not drawn)	i	-1.05	-3.4%
CCOP(=O)(OCC)C(NC(C)=O)C(Cl)(Cl)Cl (stereo not drawn)	i	nt	0.7%
C(#CCN1CCOCC1)COC/C=C/c1ccccc1	i	-0.68	1.8%
CN1C(=O)N(C)C(=O)C2(Cc3ccccc3N3CCOCC32)C1=O (stereo not drawn)	i	0.72	1.2%
Cc1c2cnn(CC(=O)N3CCC4(CC3)OCCO4)c(=O)c2c(C)n1Cc1ccccc1F	i	1.95	4.1%
CCCCOC(=O)COc1cc(C)cc2oc(=O)c3c(c12)CCC3	i	-0.93	-0.7%
O=C(c1cc(-c2ccccc2)nc2ccccc12)N1CCC2(CC1)OCCO2	i	-0.03	-1.9%
CCOP(=O)(CN(CC)CCNP(=O)(OCC)OCC)OCC	i	nt	5.5%
C=CCn1c(O)c(C=NCCN2CCNCC2)c(=O)[nH]c1=O	i	nt	-0.2%
CC(C)OCCCNC(=O)c1c(N)n(Cc2cccs2)c2nc3ccccc3nc12	i	0.1	4.2%

Following part
SMILES	MT1-MMP promoter	WNV protease inh	Hsc70 ATP site
O=C(c1cc2ccccc2oc1=O)N1CCC2(CC1)OCCO2	i	-0.82	2.9%
COc1ccc(CC2C(=O)N(C)C(=O)N(C)C2=O)c(OC)c1	i	-0.28	3.4%
CC(C)OC(=O)c1c(N)n(CC2CCCO2)c2nc3ccccc3nc12 (stereo not drawn)	i	1.86	-2.0%
CCCCn1c(O)c(C(CC)=Nc2ccc(C(=O)O)cc2)c(=O)[nH]c1=O	i	-0.74	-9.1%
CN1CCN(C(=O)COc2ccc(S(=O)(=O)N(C)Cc3ccccc3)cc2)CC1	i	nt	-15.2%
O=c1[nH]c(=O)n(-c2ccccc2Cl)c(O)c1C=NCCN1CCCCC1	i	nt	-0.2%
Cc1sc2c(c1C)C(c1cccs1)=NCC(=O)N2CC(=O)NCc1cccs1	i	-0.09	-5.2%
O=C(c1cc2cc3ccc(Cl)cc3nc2o1)N1CCC2(CC1)OCCO2	i	-0.87	-4.7%
COCCOC(=O)c1c(C)oc2ccc(OC(=O)N(C)C)cc12	i	0.35	0.5%
CC(=O)N1CN2CN(C(C)=O)CC(C(=O)c3ccccc3)(C2)C1	i	1.03	-2.5%
Cc1ccc2c(c1)CC1(CN2C)C(=O)NC(=O)N(CCc2ccccc2)C1=O (stereo not drawn)	i	nt	0.8%
CC1=[N+]([O-])C2(N)CCc3nonc3C2(O)C1 (stereo not drawn)	i	-0.69	-4.5%
CCn1c(O)c(C=NCCc2c[nH]c3ccccc23)c(=O)[nH]c1=O	i	1.86	-5.0%
Cc1ccc2nc(N3CCC(C(=O)N4CCC5(CC4)OCCO5)CC3)sc2c1	i	0.37	3.1%
CN1CCc2nc3sc(C(=O)NC(C)(C)C)c(N)c3cc2C1	i	nt	-2.1%
CCOC(=O)C1CCCCC12C(C#N)=C(N)Oc1n[nH]c(C)c12 (stereo not drawn)	i	0.64	-2.0%
CC12CN3CC(C)(CN(C1)C3c1ccncc1)C2=O (stereo not drawn)	i	-0.46	-6.2%
CCC(C)OC(=O)c1c(N)n(Cc2cccs2)c2nc3ccccc3nc12 (stereo not drawn)	i	nt	0.6%
CCCCCCOc1ccc(CN2CCN(CCO)CC2)cc1	12.1µM*	-0.85	-3.6%
CCN(CC)C(=O)c1ccc(NC(=O)Cn2nc(C)c3ccccc3c2=O)cc1	i	1.58	0.7%
C[N+]1(C)[C@@H]2CC[C@H]1CC(OC(=O)C(CO)c1ccccc1)C2 (stereo partly drawn)	i	0.29&0.04	4.9%
COc1ccc2c(c1OC)C(=O)OC2c1c(O)n(C2CCCCC2)c(=O)[nH]c1=O (stereo not drawn)	i	0.71	-1.0%
Fc1ccc2c(c1)nnn2C1CCN(Cc2nnnn2CCc2ccccc2)CC1	i	-0.79	3.4%
CN1CCC2(CC1)NC(=O)C1=C(CN(C)CC1)N2	i	1.16	2.9%
Cc1ccc(S(=O)(=O)N2CCCC(C(=O)N3CCC4(CC3)OCCO4)C2)cc1 (stereo not drawn)	i	-1.05	-9.1%

(more compounds)
SMILES	MT1-MMP promoter	WNV protease inh	Hsc70 ATP site
CC1(C)CC(n2[nH]c(=O)c3c2NC(=O)CSC3c2ccccc2)CCO1 (stereo not drawn)	i	0.31	0.7%
CN(C)c1nc(OCCNC(=O)COc2ccc(Cl)cc2Cl)nc(N2CCCCC2)n1	i	-0.39	6.4%
Cc1cc(OCC(=O)Nc2c(C)n(C)n(-c3ccccc3)c2=O)c2c3c(c(=O)oc2c1)CCC3	i	1.59	-5.8%
c1ccc(CCN2CCC(N3CCN(c4ccccc4)CC3)CC2)cc1	i	-0.32	-3.1%
N#Cc1ccccc1Cn1cc(C(=O)c2ccco2)c2ccccc21	i	-0.27	-4.1%
CCCCn1c(NC(=O)c2ccco2)c(C(=O)OCC)c2nc3ccccc3nc21	i	1.31	3.1%
CCN(CC)c1ccc(N=Cc2c(O)n(Cc3ccccc3)c(=O)[nH]c2=O)cc1	i	nt	-5.6%
CCN1CCN(Cc2cc(C(C)(C)C)c(O)c(C(C)(C)C)c2)CC1	i	nt	6.4%
C[C@H]1CCC[C@H](O)CCCCCc2cc(O)cc(O)c2C(=O)O1	i	-0.42	0.7%
CCN1CCC(O)(c2ccccc2)C(C(=O)c2ccccc2)C1 (stereo not drawn)	i	nt	0.5%
C=C1N2CCC(CC2)C1(O)c1ccccc1C (stereo not drawn)	i	-1.9	-7.3%
O=c1cccc2n1CC1CC2CN(S(=O)(=O)c2ccccc2)C1 (stereo not drawn)	i	nt	2.3%
CC(C)=CCSc1nnc([C@@H](N)Cc2c[nH]c3ccccc23)o1	i	-0.65	2.2%

Not all compounds are listed; rates above refer to the full screens.
